# Assay outcomes deposited in PubChem BioAssay by several laboratories.
# LANA-H2B inh: blocks KSHV LANA binding to histone H2A/H2B | cell-free LANA-H2A/H2B peptide, fluorescence polarization | inhibition, % (no concentration beside the values) | hit rate 0.6% among 320,000 | AID 2629; in the data active means inhibition mostly above about 10%, no sharp cut-off; inactive means mostly below about 6.7%;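 further: stock transfer was 7.5 nL into about 10 µL; 0% = median of vehicle wells and 100% = median of positive control wells; one replicate is shown; the record names a cut of 25% in any replicate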
# ALR inh: inhibitors of human sulfhydryl oxidase ALR. inhibition, % (test concentration not listed). P55789. AID 485317. hit rate 3.8% among 290,000. purified ALR, DTT oxidation, H2O2 HRP-luminol luminescence;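 active means mean and each replicate at 75% or more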;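 further: stock transfer was 7.5 nL into about 7.5 µL; 0% = neutral wells and 100% = wells with inactivated enzyme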
# Target sequence (P55789 whole entry, looked up): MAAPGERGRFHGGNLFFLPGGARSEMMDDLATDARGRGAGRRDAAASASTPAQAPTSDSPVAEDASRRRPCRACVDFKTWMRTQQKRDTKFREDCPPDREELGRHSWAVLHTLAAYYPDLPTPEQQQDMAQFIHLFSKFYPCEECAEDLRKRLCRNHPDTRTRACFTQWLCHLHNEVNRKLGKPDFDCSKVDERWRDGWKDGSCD
# HNF4A DNA FP: change in binding of human HNF4 alpha to DNA; AID 1224865; activity change, % at 10 µM; HNF4a-FITC DNA binding, fluorescence polarization, 1 h; hit rate 0.3% among 360,000; in the data active means activity change above about 30%, passing the limit was not always enough;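 further: controls were the assay level and a saturating level of protein; the project sought stronger binding though the title names inhibitors; some compounds called inactive have numbers as strong as hits; positive values seem to mean higher polarization but the record does not say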
# Target sequence (P41235 whole entry, looked up): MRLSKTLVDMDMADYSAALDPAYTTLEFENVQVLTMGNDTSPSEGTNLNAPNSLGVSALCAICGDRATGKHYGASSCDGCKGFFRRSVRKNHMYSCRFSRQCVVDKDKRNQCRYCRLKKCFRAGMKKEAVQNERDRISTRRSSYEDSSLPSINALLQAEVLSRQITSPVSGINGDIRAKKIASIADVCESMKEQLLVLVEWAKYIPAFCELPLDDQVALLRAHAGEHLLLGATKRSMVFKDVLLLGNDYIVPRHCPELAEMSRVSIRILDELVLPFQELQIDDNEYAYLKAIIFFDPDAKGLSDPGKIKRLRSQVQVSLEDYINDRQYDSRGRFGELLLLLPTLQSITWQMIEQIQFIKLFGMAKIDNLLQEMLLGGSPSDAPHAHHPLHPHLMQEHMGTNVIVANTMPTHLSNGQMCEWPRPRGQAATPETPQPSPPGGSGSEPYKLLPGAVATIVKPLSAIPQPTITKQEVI
# Ecoli growth: blocks Escherichia coli growth; OD600, 23 h; stronger effect = lower value; OD600 absorbance (no concentration beside the values); hit rate 0.21% among 330,000;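 active means OD600 absorbance below the run mean of sample wells minus 3.6 SD, in any replicate, cut at about 0.56 in these data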;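 further: stock transfer was 300 nL into about 60 µL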
# Beta2AR agonist: human beta-2 adrenergic receptor agonism by FAP. P07550. Am2.2-beta2AR cells, FAP receptor internalization, flow cytometry; reference of the scale not given here. response, % (test concentration not listed). hit rate 0.43% among 340,000. AID 504454;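 active means response above a set limit, near 3 SD of response in nonfluorescent compounds, cut at about 42% in these data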;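 further: stock transfer was 100 nL into about 11 µL; a reference agonist was the positive control; negative values mostly stem from fluorescent compounds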
# UCH37 DUB inh: inhibitors of human deubiquitinating enzyme UCH37; Q9Y5K5; purified proteasome/UCH37, Ub-AMC cleavage fluorescence; inhibition, % (no concentration beside the values); hit rate 0.33% among 330,000;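 active means mean of two replicates above 20%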;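 further: 0% = compound-free wells with enzyme and 100% = wells lacking proteasome; stock transfer was 100 nL into about 20 µL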
#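 Schedule: 30 min plus 25 min, room temperature / Material: human UCH37 within purified proteasomes / Technique: AMC fluorescence intensity at 355/460 nm / Buffer or medium: pH 7.4 Tris-HCl (50 mM) with ovalbumin, ATP-MgCl2, DTT / Controls: wells without proteasome as full block, compound-free enzyme plus substrate as uninhibited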
# FGF22 binding: shifts melting point of recombinant human FGF22; Q9HCT0; recombinant FGF22 thermal shift, SYPRO orange fluorescence; percent of sucrose octasulfate shift, DMSO zero; calls only at 9.99 µM; hit rate 1.5% among 340,000;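 active means melting point raised past a set limit in the mean and every replicate; three in four hits are not shown here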
# Target sequence (Q9HCT0 whole entry, looked up): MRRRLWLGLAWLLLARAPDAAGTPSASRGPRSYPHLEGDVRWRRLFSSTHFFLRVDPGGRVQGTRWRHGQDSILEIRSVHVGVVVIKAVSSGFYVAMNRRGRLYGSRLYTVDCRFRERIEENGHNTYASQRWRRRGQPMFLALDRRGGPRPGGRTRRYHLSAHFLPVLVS
# * = called active by the depositor; i = inactive; . = no result given; & = joins results of further samples. These rows are one share of the data; the hit share may differ from the screen's.
SMILES,LANA-H2B inh,ALR inh,HNF4A DNA FP,Ecoli growth,Beta2AR agonist,UCH37 DUB inh,FGF22 binding
Cc1ncc(CN2CCCC(C(=O)c3cccc(Cl)c3)C2)s1 (stereo not given),3.1,-2,6.2,0.65,11,3.3,i
Cc1nc2ccc(N3CCN(C)CC3)cc2nc1C,4.8,-18,-2.5,0.68,9,-33,.
CC1CC2(C)C(=CC1=O)CCC1C3CCC(C)(O)C3(C)CC3OC312 (stereo not given),.,.,0.1,0.7,-1,5.2,i
CN1OC[C@@H]2COc3ccc4ccccc4c3[C@@H]21,-6.5,-6,2.4,.,-1,5.3,i
Cc1cc(OC(C)C(=O)NCc2ccncc2)c2c3c(c(=O)oc2c1)CCC3 (stereo not given),-1.1,-4,0.1,0.7,-10,-98,i
COc1ccc(NP(=O)(Oc2ccccc2OC)Oc2ccccc2OC)cc1,3.7,-8,-3.0,0.7,15,3.2,i
Cc1cccc(CN2CCN(CC(=O)N3CCC4(CC3)OCCO4)C2=O)c1,-1.6,9,4.6,0.67,-3,3.0,.
Cc1ccc(N2C(=O)NC(=O)/C(=C\c3ccc(N4CCOCC4)cc3)C2=O)cc1,2.1,7,1.3,0.62,4,3.2,.
O=C1NC(=O)C2(Cc3ccccc3N3CCCC32)C(=O)N1 (stereo not given),-2.3,99*,-2.4,0.72,-8,-16,.
COC(=O)C1=C(c2ccccc2)C[C@@H]2CC[C@H]1N2C,-2.5,6,-2.0,.,-4,-0.5,i
CC(=O)OC1CCC2(C)C3CCC4(C)C(OC(C)=O)CCC4C3C(C)C2(O)C1 (stereo not given),.,.,0.2,0.69,-1,2.9,.
Cn1cccc1/C=C1/C(=O)NC(=O)N(Cc2ccc(F)cc2)C1=O,0.1,8,2.2,0.67,19,1.5,i
CCC(C)C1NC(=O)C(NC(=O)C(CC(C)C)N(C)C(=O)C2CCCN2C(=O)C(C)O)C(C)OC(=O)C(Cc2ccc(OC)cc2)N(C)C(=O)C2CCCN2C(=O)C(CC(C)C)NC(=O)[C@H](C)C(=O)[C@H](C(C)C)OC(=O)CC1O (stereo not given in full),.,.,-0.9,.,42*,.,i
OC1(c2cccnc2)CC2CCC(C1)N2Cc1nnnn1Cc1ccccc1 (stereo not given),0.1,-5,-0.8,0.68,14,2.7,.
COC(=O)C1=C(c2ccc(F)cc2F)C[C@@H]2CC[C@H]1N2C(=O)N1CCC(C)CC1,2.1,-3,-3.5,.,-4,1.3,i
COP(=O)(OC)C(NC(=O)c1ccc(C)cc1)C(Cl)(Cl)Cl (stereo not given),-0.1,5,0.3,0.7,-3,5.6,i
CCCCC12CNCC(C)(CNC1)C2=O,-5.1,6,2.6,0.69,1,0.3,.
O=c1[nH]c(=O)n(Cc2ccco2)c(O)c1C=NCCN1CCOCC1,-1.7,-8,8.9,0.69,-1,3.6,.
N#C/C(N)=C(/N)C#N,-6.2,98*,-4.2,0.64,2,1.2,i
C[C@]12CCC3C(CCC4=CC(O)CC[C@@]43/C=N/O)C1(O)CCC2C1=CC(=O)OC1 (stereo not given in full),0.8,-3,0.5,.,-4,.,i
CN(C)P1(N(C)C)=Nc2c(c(N)nn2C)C(c2ccccc2)=N1,-2.4,86*,4.6&2.2,0.67&0.75,3&-1,3.2&4.8,i
CN(C)C(=O)Nc1cccc(OC(=O)N(C)C)c1,0.1,1,-1.1,0.69,1,1.3,.
Cc1oc2ccc(OC(=O)N(C)C)cc2c1C(=O)OC(C)C,-4.2,-4,0.0,0.66,6,0.4,.
Cc1cccc2c1=NC(=O)/C(=C/c1c(O)[nH]c(=O)[nH]c1=O)C=2,0.4,-6,-2.7,0.67,5,3.9,.
Cc1ccccc1C1=NCC(=S)Nc2ccc(Cl)cc21,0.8,6,-1.8,0.72,5,0.8,.

# The list goes on; the last seven above are carried over.
SMILES,LANA-H2B inh,ALR inh,HNF4A DNA FP,Ecoli growth,Beta2AR agonist,UCH37 DUB inh,FGF22 binding
N#C/C(N)=C(/N)C#N,-6.2,98*,-4.2,0.64,2,1.2,i
C[C@]12CCC3C(CCC4=CC(O)CC[C@@]43/C=N/O)C1(O)CCC2C1=CC(=O)OC1 (stereo not given in full),0.8,-3,0.5,.,-4,.,i
CN(C)P1(N(C)C)=Nc2c(c(N)nn2C)C(c2ccccc2)=N1,-2.4,86*,4.6&2.2,0.67&0.75,3&-1,3.2&4.8,i
CN(C)C(=O)Nc1cccc(OC(=O)N(C)C)c1,0.1,1,-1.1,0.69,1,1.3,.
Cc1oc2ccc(OC(=O)N(C)C)cc2c1C(=O)OC(C)C,-4.2,-4,0.0,0.66,6,0.4,.
Cc1cccc2c1=NC(=O)/C(=C/c1c(O)[nH]c(=O)[nH]c1=O)C=2,0.4,-6,-2.7,0.67,5,3.9,.
Cc1ccccc1C1=NCC(=S)Nc2ccc(Cl)cc21,0.8,6,-1.8,0.72,5,0.8,.
O=C(C1CC(=O)N(c2ccc(F)c(Cl)c2)C1)N1CCC2(CC1)OCCO2 (stereo not given),0.7,-4,-1.2,0.7,-8,2.6,.
CN(C)CC1CCCCC1OC(=O)Cc1ccc(Cl)c([N+](=O)[O-])c1 (stereo not given),-4.5,.,-1.4,0.7,-5,0.6,i
c1ccc2c(c1)[IH]c1ccccc1-2,.,.,-3.3,.,13,.,i
CN1CCC2(CC1)c1ccccc1-c1ccccc12,.,.,7.2,0.66,16,4.2,i
COc1ccc(-c2nc3ccccc3c(=O)o2)cc1,1.3,.,1.4,0.69,0,-16,i
CN(C)C(=O)Oc1cccc(NC(=O)N2CCOCC2)c1,0.2,0,1.9,0.77,5,-3.8,.
CN1C(C(=O)N2CCC3(CC2)OCCO3)=CC(c2ccc(F)cc2)=NS1(=O)=O,2.9,1,-2.3,0.66,-7,-3.4,i
CC(C)(C)C(=O)O[C@H]1CC[C@@]2(C)C(=CC(=O)C3C2CC[C@]2(C)C(=O)[C@@H](F)CC32)C1 (stereo not given in full),2.8,-16,4.8,0.67,5,1.6,i
O=C(O)[C@H]1C[C@@H]1[C@H](NP(=O)(c1ccccc1)c1ccccc1)c1ccccc1,0.1,-3,-0.3,.,10,-0.2,i
COC(=O)C12OCC34C(CC5C(C)=C(O)C(=O)CC5(C)C3C(O)C1O)OC(=O)C(OC(=O)/C=C(\C)C(C)C)C24 (stereo not given),.,.,0.5,.,-9,.,i
CCC(=NCC1CCCO1)c1c(O)n(Cc2ccccc2)c(=O)[nH]c1=O (stereo not given),3.7,-19,2.9,0.63,-3,1.6,.
C[C@]12CC[C@H](N)CC1=CCC1C2CC[C@@]2(C)C1CC[C@@H]2O (stereo not given in full),2.5,1,-2.2,0.7,10,3.9,i
CCC(=O)N1CC(=O)Nc2ccc(F)cc2C1c1ccc(F)cc1 (stereo not given),-1.8,-13,7.3,0.65,8,-1.1,i
CCC(C)NS(=O)(=O)c1ccc(OCC(=O)N2CCN(CC)CC2)cc1 (stereo not given),-3.8,2,-0.7,0.69,4,1.0,.
COC(=O)C1=C(c2c(C)noc2C)C[C@@H]2CC[C@H]1N2C(=O)NCc1ccc2c(c1)OCO2,-0.8,-6,2.5,.,-3,4.6,i
Nc1ccc(Cl)cc1C(=O)c1ccccc1Cl,-0.8,5,2.4,0.69,1,3.1,.
CN1CCN(c2nc3c(c(=O)[nH]2)CCC3)CC1,-0.1,1,-4.3,0.71,4,1.2,i
CSc1ccc(CN2CCN(C(=O)COc3cccc(C)c3)CC2)cc1,0.9,-1,-3.0,0.68,7,0.4,i
O=C1NC(=O)C2(Cc3c(nc4ccccn4c3=O)N3CCCCCC32)C(=O)N1Cc1ccccc1 (stereo not given),0.8,-3,4.7,0.74,0,-16,.
c1cc(C2N3CCCN2CC3)ccn1 (stereo not given),0.3,1,-0.8,0.63,-8,3.5,i
CCNCC(O)c1cccc(O)c1 (stereo not given),2.1,10,-1.3,0.7,-7,1.2,i
O[C@H]1C2CCC1C(N1CCCCC1)CC2 (stereo not given in full),-0.2,.,0.0,.,7,1.3,.
COC(=O)C1=C(c2cc3ccccc3o2)C[C@@H]2CC[C@H]1N2C(=O)NCc1ccc(C(F)(F)F)cc1,-8.3,-13,1.5,.,1,-0.5,i
C[C@]12CCC3C(CC[C@@H]4C[C@@H](O)CC[C@]34C)C1CC[C@@H]2O (stereo not given in full),.,.,3.0,0.7,1,2.3,i
Cc1cc(C)n2nc(SC(C)C(=O)N3CCC4(CC3)OCCO4)nc2n1 (stereo not given),2.4,-26,6.7,0.69,-15,3.6,.

# (listing goes on)
SMILES,LANA-H2B inh,ALR inh,HNF4A DNA FP,Ecoli growth,Beta2AR agonist,UCH37 DUB inh,FGF22 binding
COc1ccc(CN2C(=O)NC(=O)/C(=C/c3ccoc3)C2=O)cc1,-8.8,58,16,0.66,4,1.1,i
Cc1ccc(-c2cc(-c3ccc(C)cc3)[n+](-c3ccccc3)c(-c3ccc(C)cc3)c2)cc1,-3.2,.,2.6,0.55,44*,0.0,.
CCOC(=O)[C@]12Cc3cc(N(C)C)ccc3[C@H]1N(Cc1ccccc1)C(=O)c1ccccc12,.,.,3.5,.,12,1.3,i
C[C@@H]1O[C@@H](O[C@H]2C[C@@H](O)[C@]3(CO)[C@H]4[C@H](O)C[C@]5(C)[C@@H](C6COC(=O)C6)CC[C@]5(O)[C@@H]4CC[C@]3(O)C2)[C@H](O)[C@H](O)[C@H]1O (stereo not given in full),-5.9,-33,4.4,.,0,5.7,i
CC1CC(C)CN(C(=O)COC(=O)c2cn(C)c3ccccc23)C1 (stereo not given),0.0,4,-1.7,0.72,3,1.9,i
C=CCC1([C@@H](C)CCC)C(=O)NC(=O)NC1=O,.,.,2.8,0.74,-4,4.0,i
Cc1cc(C)nc(NC2=NCCS2)n1,-4.9,-2,1.0,0.67,7,4.5,.
CC(NCc1ccccc1C(F)(F)F)C(O)c1ccccc1 (stereo not given),-0.2,-3,-3.5,0.68,-2,1.1,i
CC1(C)C2([N+](=O)[O-])CN3CC1([N+](=O)[O-])CN(C2)C3c1cccnc1 (stereo not given),-6.0,0,-1.7,0.71,8,3.7,i
Cc1cc(C(=O)CS(=O)(=O)c2ccc(F)cc2)cc(C)c1OC(=O)N(C)C,1.0,-8,3.9,0.7,-4,3.7,i
CC(=O)N1CCN(c2ccc(N=Cc3c(O)n(-c4ccc(Cl)cc4)c(=O)[nH]c3=O)cc2)CC1,.,.,2.2,0.75,0,12,.

# Part of the list above, limited to LANA-H2B inh:
SMILES,LANA-H2B inh
C[C@@H]1O[C@@H](O[C@H]2C[C@@H](O)[C@]3(CO)[C@H]4[C@H](O)C[C@]5(C)[C@@H](C6COC(=O)C6)CC[C@]5(O)[C@@H]4CC[C@]3(O)C2)[C@H](O)[C@H](O)[C@H]1O (stereo not given in full),-5.9
COc1ccc(CN2C(=O)NC(=O)/C(=C/c3ccoc3)C2=O)cc1,-8.8
